Screens as filed in PubChem.
VACV Venus inh = vaccinia inhibition (Venus reporter); Vaccinia virus Venus reporter expression, fluorescence; hit rate 0.46% among 330,000; Potency, µM (doses to about 36.5 µM), for the others: at the highest dose activity change, negative = inhibition, usual class: inhibitors; AID 720580; active means well fitted inhibition curve with a large enough effect; inconclusive means small, poorly fitted or top-dose-only effect; inactive means no such curve, though single readings can be large or run the other way; tested in A549 cells; further: nearly all actives have a fitted effect of over 30% in size; inactives centre near -10
Vaccinia mCherry = inhibitors of vaccinia virus infection (mCherry reporter signal). Vaccinia virus mCherry reporter infection, fluorescence; about a quarter of the inactives have no number. hit rate 0.63% among 310,000. Potency, µM (doses to about 36.5 µM), for the others: top-dose activity change, negative = inhibition, most hits filed as inhibitors. AID 720579; active = well fitted inhibition curve with a large enough effect; inconclusive = small, poorly fitted or top-dose-only effect; inactive = no such curve, though single readings can be large or run the other way; tested in A549 cells; further: nearly all actives have a fitted effect of over 35% in size; inactives centre near -10
An asterisk follows results filed as active; i = inactive; ? = inconclusive; . = not tested or not shown; [ ] = dose if it differs, or a comment. On the % scale 0 is the no-effect control and ±100 the full control effect; potency means the concentration at half of the fitted maximal effect. Not a hit list. About 0.82% of those tested had a hit in this group.

compound	VACV Venus inh	Vaccinia mCherry
COCCCn1c(N)c(C(=O)OC(C)COC)c2nc3ccccc3nc21 (centres undefined)	13%	.
CC(C)CN(C(=O)COc1ccc(-c2nnco2)cc1)C1CCS(=O)(=O)C1 (centres undefined)	-11%	i
CC(=O)Cn1c(=O)oc2ccccc21	-12%	-12%
CCOc1ccc(CNC(=O)CCCn2c(=O)c3cccn3c3cccnc32)cc1	-11%	i
CCOc1ccc(-n2c(C)nc3c(cnn3-c3ccc(Cl)cc3)c2=O)cc1	-10%	-15%
COCCNC(=O)c1c[nH]c2ccc(S(=O)(=O)N3CCC4(CC3)OCCO4)cc2c1=O	-3%	-1%
CC(=NN(Cc1ccccc1)c1ccccc1)c1ccccc1	-8%	i
Cc1cc(C)c2c(NC(=O)C3CC3)nn(C)c2n1	4%	i
Cc1ccc(S(=O)(=O)N(C)CCCC(=O)N2CCN(c3ccccn3)CC2)cc1	?	?
CCOC(=O)c1nc(N)c(=O)n(-c2ccccc2)n1	-6%	-11%
Cc1cccc(N2CCN(C(=O)c3ccc(CNc4c(N5CCC(C)CC5)c(=O)c4=O)cc3)CC2C)c1 (centres undefined)	?	-12%
Cn1c(=O)oc2cc(S(=O)(=O)Nc3ccc(Cl)cc3)ccc21	-2%	i
O=C(N/N=C/c1ccc(OCCCF)cc1)c1ccc(C(F)(F)F)cc1	-11%	-8%
CN(C)Cc1ccccc1OC(=O)N(C)C	-12%	.
CC(=O)N1CCN(S(=O)(=O)c2c(C)n(C)c(=O)n(C)c2=O)CC1	-12%	-10%
Cc1cc2nc(/N=C(\N)NC(=O)C(C)C)nc(C)c2cc1C	1µM*	?
Cc1onc(-c2c(F)cccc2Cl)c1C(=O)OCC(=O)c1c(N)n(C)c(=O)n(C)c1=O	-25%	i
C[C@H]1CN([C@@H](C)CO)C(=O)CCCn2cc(nn2)CO[C@@H]1CN(C)C(=O)Nc1ccc(N2CCCCC2)cc1	-9%	i
CC(C)(C)OC(=O)NCCCCCNC(=O)c1ncn2c1c(=O)[nH]c1ccccc12	-23%	-14%
Cc1ccc2oc(=O)c(/C=C(\O)C(C)(C)C)nc2c1	-9%	?
CC(C)Sc1nc(NCc2ccco2)c2c3c(sc2n1)COC(C)(C)C3	-14%	.
O=C(Nc1ccncc1)c1cc2ccccc2cc1O	?	?
OC[C@@H]1CN(CCc2ccccc2)C[C@H](n2cnc3c(NCc4ccc(F)cc4)ncnc32)O1	-21%	-29%
CCO[C@@H]1OC(C(=O)NCc2ccccc2)=C[C@H](c2ccc(Br)cc2)[C@H]1CCCO	?	-15%
Cn1c(=NC(=O)CS(=O)(=O)c2ccc(F)cc2)sc2ccccc21	-18%	-19%
CN(CC(=O)Nc1ccc(N2CCOCC2)cc1)C(=O)CSc1ccc(Br)cc1	-18%	-4%
O=C(NCc1ccc2c(c1)OCO2)c1n[nH]c(=O)c2ccccc12	5%	7%
COc1ccc([C@H]2CC(=O)C=C(c3cc(Cl)cc(Cl)c3)C2)cc1	-14%	i
Fc1ccc(C2Nc3cccc4cccc(c34)N2)cc1	10%	?
Oc1ccc(CN2CCCc3ccccc32)c2cccnc12	?	?
CS(=O)(=O)N1CCCC(C(=O)NCCCN2CCC(Cc3ccccc3)CC2)C1 (centres undefined)	-2%	-10%
CCOc1ccc(Nc2c3c(nc4ncnn24)CC(C)CC3)cc1 (centres undefined)	-5%	-7%
Cc1ccc(-n2c(SCC(=O)NCCN3C(=O)CSC3=O)nnc2-c2cccc(C)c2)cc1	-26%	i
CC1CN1P(=O)(Oc1ccc2ccccc2c1)N1CC1C (centres undefined)	-4%	i
O=C(Cn1c(C(F)(F)F)nc2ccccc21)c1ccc(Br)cc1	-11%	-9%
C[C@H](CO)N1C[C@H](C)[C@@H](CN(C)C(=O)Nc2ccc3c(c2)OCO3)Oc2ccc(NC(=O)Nc3ccc(C(F)(F)F)cc3)cc2C1=O	-19%	-30%
COc1ccc(NC(=O)CCS(=O)(=O)c2nc(-c3ccc4c(c3)OCO4)cc(C(F)(F)F)n2)c(OC)c1	7%	-4%
CCOc1cc(-c2nc(C)c(C(C)=O)n2O)ccc1OCC(=O)Nc1ccccc1	-12%	-4%
Cc1c(C(=O)NCc2ccc(Cl)c(Cl)c2)sc(=O)n1Cc1ccc(S(=O)(=O)N(C)C)cc1	-18%	-6%
CC(C)Oc1cc(F)ccc1-c1cc(C(=O)NCC2CCCCC2)[nH]n1	-10%	-19%
NC(=O)c1nsc(C(=O)N(c2cccc(F)c2)C(C(=O)NC2CCCC2)c2ccc(O)cc2)c1N (centres undefined)	-15%	-29%
O=C1CC(c2ccc(F)cc2)Sc2nc(C34CC5CC(CC(C5)C3)C4)nn21 (centres undefined)	-9%	i
COc1ccc(Cl)cc1NC(=S)NCc1cccs1	-1%	7%
COc1ccc(C2CC(=O)C(C=NCCN3CCN(C(=S)Nc4ccccc4)CC3)=C(O)C2)cc1OC (centres undefined)	-3%	-6%
CCCCCOc1ccc(/C=N/NC(=O)c2nnn(-c3nonc3N)c2CN2CCCCCC2)cc1	6%	i
CC(C)Oc1ccc(/C(O)=C2/C(=O)C(=O)N(CCN(C)C)C2c2cccs2)cc1 (centres undefined)	-3%	i
O=C(CCNS(=O)(=O)c1ccc(Br)s1)NCc1ccccc1Cl	-24%	-18%
CCOc1ccc(NC(=O)CCCn2c(C)c3cnn(-c4ccccc4)c(=O)c3c2C)cc1	5%	-8%
COc1ccc(CC(=O)NC2=NCCS2)cc1	-8%	-18%
COc1ccccc1-c1noc(CCCC(=O)NC2CCCC2)n1	7%	-5%
COc1ccc(C[C@H]2CN3C(=NC[C@H]3Cc3ccccc3)N2CCNC(=O)c2ccc(C)c(Br)c2)cc1	14µM*	?
Cc1ccc(CNC(=O)C2CCCN(C(=O)N(C)C)C2)cc1 (centres undefined)	-10%	-15%
CCCCN1C(=O)C(=O)N(CC(=O)NC2CCCc3ccccc32)C1=O (centres undefined)	-5%	-4%
Cc1cc(C)n2nc(C(=O)Nc3ccc(S(=O)(=O)N4CCCC4)cc3)nc2n1	-6%	-27%
COc1cccc(OC(=O)CSc2nnc(-c3cccs3)o2)c1	-8%	-8%
COCCCn1c(SCC(N)=O)nnc1-c1ccccc1	-8%	-1%
COc1cccc(/C=N\NC(=O)C2C(=O)NCC2c2ccccc2)c1O (centres undefined)	?	.
CC(=O)c1ccc(Nc2nc(C(N)c3ccccc3Cl)cs2)cc1 (centres undefined)	-7%	-17%
Cn1c(=O)c2c(nc(N3CCOCC3)n2CCSc2ncccn2)n(C)c1=O	-8%	-20%
Cc1ccccc1C(=O)NC(=S)Nc1ccc(S(=O)(=O)N2CCN(C)CC2)cc1	2%	.

Single records, from the list above. Order of values: VACV Venus inh	Vaccinia mCherry
`CC(=O)c1ccc(Nc2nc(C(N)c3ccccc3Cl)cs2)cc1` (centres undefined) as listed: -7%	-17%
`COc1ccc(CC(=O)NC2=NCCS2)cc1` as listed: -8%	-18%

The list continues.
compound	VACV Venus inh	Vaccinia mCherry
COc1ccc(S(=O)(=O)N2CCCCCC2)cc1C(=O)N(C)CCOc1ccccc1	-17%	-23%
O=S(=O)(Cc1ccccc1)N1CCN(Cc2ccc(Br)cc2)CC1	-13%	0%
COC(=O)c1cc2oc3ccccc3c2n1CC(=O)Nc1ccc(F)c(Cl)c1	-17%	-15%
O=c1ccc2cc3ccoc3c(O)c2o1	-9%	1%
COc1ccc(C2(C)NC(=O)N(CC(=O)NCc3ccccc3F)C2=O)cc1 (centres undefined)	-24%	-18%
CC(=O)N1c2ccccc2[C@@H](C)[C@@H]1C	0%	i
COc1ccccc1/C=C1\SC(=S)N(CCC(=O)NC2=NCCS2)C1=O	1%	-3%
COc1ccc(C(=O)NCC(C)C)c(OC)c1	-21%	?
CCCC(=O)N=C1SC2CS(=O)(=O)CC2N1c1ccc(-c2nc3ccc(C)cc3s2)cc1 (centres undefined)	-5%	-21%
O=[N+]([O-])c1cccc(/C=N/NC2=NS(=O)(=O)c3ccccc32)c1	-4%	i
CCc1nc2c(OCC(=O)c3ccc(F)cc3)cccn2c1N(C)C(=O)c1ccc(OC)cc1	-1%	11%
COc1ccc(CNc2ncnc3c2cnn3-c2ccc(C)c(C)c2)cc1	-8%	-7%
CCN(CC)c1ccc(NC(=O)c2ccc3c(c2)OCO3)cc1	-20%	?
Cc1ccc(CC(CC(=O)O)C(=O)NCC23CC4CC(CC(C4)C2)C3)cc1 (centres undefined)	-2%	-1%
COCCN(C)C(=O)c1cnn(-c2nccc(-c3cc(C)sc3C)n2)c1C	6%	-11%
CCc1cccc(CC)c1NC(=S)NCc1ccc2c(c1)OCO2	-6%	-13%
O=C(Nc1cccc(Cl)c1N1CCOCC1)c1ccco1	-4%	-13%
COC(=O)c1cc2occc2n1Cc1nc(-c2cccc(Br)c2)oc1C	-9%	-24%
COc1ccc(Oc2cc(C(F)(F)F)nc(N(C)C)n2)cc1	-14%	?
COC(=O)Cn1c(=O)c2cccn2c2cccnc21	-3%	-4%
COCCn1c(SCC(=O)c2cc(C)ccc2C)nc2cc(C(=O)NC3CCCC3)ccc2c1=O	-5%	-7%
C#Cc1ccc(NC(=O)C2(C)CCN2C(=O)c2ccccc2CCc2ccccc2)cc1 (centres undefined)	-12%	i
CCCCNC(=O)C(C)N(CCN(C)C)C(=O)CCCCCN1C(=O)NC(c2ccc(Cl)cc2)C(C(=O)OCc2ccccc2)=C1C (centres undefined)	-20%	-25%
COc1ccccc1CN1CCNC(=O)C1CC(=O)NCCOc1cccnc1 (centres undefined)	-13%	-7%
COc1ccccc1-n1cnnc1SCC(=O)NC1CCS(=O)(=O)C1 (centres undefined)	-9%	-3%
c1ccc(-c2nc(N3CCCCC3)nc3ccccc23)cc1	-13%	.
O=C(NCc1ccccc1)C(c1ccncc1)n1c(=O)c(-c2cc3ccccc3[nH]2)nc2ccccc21 (centres undefined)	?	?
Cc1ccc(NC(=O)Nc2ccc3nc(N4CCN(C)CC4)cc(C)c3c2)cc1F	?	?
O=C(O)CCC(=O)OC[C@@H](NC(=O)C(Cl)Cl)C(O)c1ccc([N+](=O)[O-])cc1 (some centres undefined)	-5%	-18%
NC(=O)Nc1ccc(Cl)cc1	-1%	-1%
Cc1ccc2nc(-c3cccc(Br)c3)cc(C(=O)NC3CC3)c2c1	2%	-7%
Cc1cccc(NC(=O)CN2C(=O)N/C(=C\c3ccccc3OCc3ccc(C(=O)O)cc3)C2=O)c1	8%	i
CCCCCc1cc(=O)[nH]c(=S)[nH]1	-3%	i
N#Cc1c(NC(=O)c2cccnc2)sc2c1CCC2	?	?
O=c1c2c(ncn2C2CCCC2)n(Cc2ccccc2)c(=O)n1CCOc1ccccc1	-15%	-12%
O=C(CSc1nnc2ccccn12)N1CCc2ccccc21	1%	1%
CNC[C@H]1Oc2ccc(NC(=O)Nc3ccc(OC)cc3)cc2C(=O)N([C@@H](C)CO)C[C@H]1C	-5%	-16%
CCOC(=O)C1CCN(c2cc3c(cc2NC(=O)c2ccc(OC)c(OC)c2)n(C)c(=O)n3C)CC1	-13%	-20%
COc1cc(N2CCCC2)c(OC)cc1/C=C1/NC(=S)NC1=O	278%[activator]	-13%
CCOc1ccccc1Nc1ncnc2c1cnn2-c1ccc(C)cc1	-5%	-8%

A draw from above in order of count of non-hydrogen atoms, falling.
compound	VACV Venus inh	Vaccinia mCherry
Cc1ccc(NC(=O)Nc2ccc3nc(N4CCN(C)CC4)cc(C)c3c2)cc1F	?	?
O=C(O)CCC(=O)OC[C@@H](NC(=O)C(Cl)Cl)C(O)c1ccc([N+](=O)[O-])cc1 (some centres undefined)	-5%	-18%
COc1cc(N2CCCC2)c(OC)cc1/C=C1/NC(=S)NC1=O	278%[activator]	-13%

Further results follow.
compound	VACV Venus inh	Vaccinia mCherry
C[C@]12c3[nH]c4ccc(Cl)cc4c3CCN1C(=O)[C@@H](CC(=O)NCCN1CCOCC1)C[C@@H]2C(=O)N1CCCCC1	-13%	-19%
O=C(c1ccc(Cl)cc1)c1coc2ccc(O)cc12	-12%	i
CCCOc1ccc(C2C(=O)N(C3CCC(C)CC3)CC(=O)N2Cc2cccc(OC)c2)cc1OC (centres undefined)	-6%	-10%
CCC1CCCCN1CCCNC(=O)Cn1cnc2sc(C)c(S(=O)(=O)N3CC(C)CC(C)C3)c2c1=O (centres undefined)	-12%	?
CCOc1cc(-c2c(C#N)c(N)nc3c2CCCC3C)ccc1O (centres undefined)	-27%	?
CCOC(=O)/C=C1\SCC(=O)N1CC(O)CN1C(=O)CS/C1=C/C(=O)OCC (centres undefined)	-3%	i
CCOC(=O)N1CCN(C(=O)Nc2ccc(Cl)cc2)CC1	-2%	-12%
COC(=O)/C=C1\S/C(=N/N=C/c2ccccc2)NC1=O	-7%	i
